NPYLR7 agonist – activates Aedes aegypti NPYLR7 receptor; HEK293T NPYLR7/Galpha15, GCaMP6s calcium fluorescence; activation, % at 10 µM; 270,000 compounds, 0.15% hits; AID 1259423; in the data active means activation above about 40%;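 further: 0% = vehicle and 100% = reference agonist at the receptor; some compounds past the cut are filed as inactive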
NPYLR7 agonist max-min – also measured in NPYLR7 agonist; calls as there; activation, %; measured here: Max-Min RFU normalised activation; some inactives read as strong as hits;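 span of the calcium signal over five minutes; 0% = vehicle and 100% = native peptide agonist; compound fluorescence can raise it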
Active calls of the source: *; & = joins results of further samples. A portion of the library; the hit share may differ from the screen's.

Below each compound: NPYLR7 agonist | NPYLR7 agonist max-min
> Cc1ccc(C(C)NC(=O)CNCC(C)(C)CO)cc1 (stereo not given)
→ 10 | 3
> O=C(NC1CCCCC1)N1CCc2c([nH]c3ccccc23)C1c1ccc(C(F)(F)F)cc1 (stereo not given)
→ -7 | -11
> CN1CC(=Cc2ccccn2)C(=O)C(=Cc2ccccn2)C1
→ 5 | 26
> O=C(NC1CCCN(C2CCCCCC2)C1)c1cn[nH]c1-c1ccccc1F (stereo not given)
→ 2 | -3
> CC(C)CCn1c(CN(C)Cc2cnccn2)cnc1S(=O)(=O)C(C)C
→ 11 | 9
> COc1ccc(C(=O)NCc2ccc3c(c2)cc(C)n3C)cc1
→ 1 | 0
> CC(C(=O)NCc1ccco1)n1c(=O)n(-c2ccc(F)cc2)c(=O)c2ccccc21 (stereo not given)
→ -7 | -3
> CCC1CN(C(=O)C2CC2)C(CC)CN1C(=O)C1CC1 (stereo not given)
→ 0 | 0
> CCCOC(NC(=O)CC)(C(F)(F)F)C(F)(F)F
→ 4 | 1
> CCC(=N)C1=C(O)CC(C)(C)CC1=O
→ 15 | 8
> CCN(Cc1ccc(Cl)s1)C(=O)c1ccc2c(c1)NC(=O)CO2
→ 4 | -1
> Cc1ccccc1-c1nnc2ccc(-c3cncc4ccccc34)cn12
→ 2 | -5
> C=CCn1c(C)nn(CN2CCCC2c2ccc(OC)cc2)c1=S (stereo not given)
→ 9 | 8
> Cc1oc(-c2cccc(F)c2F)nc1COc1cccc2ccc(C(N)=O)nc12
→ 1 | -3
> Cc1nc(-c2ccccc2)n(Cc2c(F)cccc2Cl)n1
→ 7 | 6
> COc1ncccc1C(=O)N(C)CC1CCCCO1 (stereo not given)
→ -6 | -8
> Nc1ncnc2c1ncn2C1O[C@H](COP(=O)(O)O)[C@@H](O)[C@H]1O (stereo not given in full)
→ 9 | 4
> O=C(c1cc(-c2ccccc2)no1)N1CCc2c([nH]c3ccccc23)C1c1ccccn1 (stereo not given)
→ 12 | -2
> CCCCOC(=O)C1=C(C)N(C)C(=O)NC1c1cc2c(cc1Br)OCO2 (stereo not given)
→ 0 | -4
> CCC(=O)Nc1cccc(C(=O)NCc2sc(C)nc2CC)c1
→ -4 | -8

Record cards (already shown).
`CCN(Cc1ccc(Cl)s1)C(=O)c1ccc2c(c1)NC(=O)CO2` reads NPYLR7 agonist: 4; NPYLR7 agonist max-min: -1
`O=C(NC1CCCCC1)N1CCc2c([nH]c3ccccc23)C1c1ccc(C(F)(F)F)cc1` (stereo not given) reads NPYLR7 agonist: -7; NPYLR7 agonist max-min: -11

Returning to the listing with the three entries that preceded the break.
Below each compound: NPYLR7 agonist | NPYLR7 agonist max-min
> O=C(c1cc(-c2ccccc2)no1)N1CCc2c([nH]c3ccccc23)C1c1ccccn1 (stereo not given)
→ 12 | -2
> CCCCOC(=O)C1=C(C)N(C)C(=O)NC1c1cc2c(cc1Br)OCO2 (stereo not given)
→ 0 | -4
> CCC(=O)Nc1cccc(C(=O)NCc2sc(C)nc2CC)c1
→ -4 | -8
> COc1cc(-c2nc(C(N)=O)c3[nH]c(=O)n(-c4cccc(Cl)c4)c3n2)ccc1O
→ -1 | 19
> CC(NS(=O)(=O)c1cc(F)ccc1F)c1ccc(NS(C)(=O)=O)cc1 (stereo not given)
→ 4 | 1
> Cc1ccc(S(=O)(=O)N(CCN2CCCC2)CC(=O)N(CCc2ccccc2)Cc2ccc(C)o2)cc1
→ -4 | 2
> C=CCN1C[C@@H]2C[C@@H](C(=O)OCC)N(C(=O)COC(C)=O)c3cccc(c32)S1(=O)=O
→ 1 | 4
> C=CCOc1c(Br)cc(/C=N\NC(=O)COc2nc(C)c(Br)c(COC)c2C#N)cc1Br
→ 10 | 17
> Clc1ccc(COc2ccccc2CNc2ncn[nH]2)c(Cl)c1
→ -12 | -15
> C=CCN(Cc1ccc(C#N)cc1)S(=O)(=O)CC1CCOCC1
→ -1 | -2
> Cc1ccc(-n2nnn(CN(Cc3cccs3)C3CCS(=O)(=O)C3)c2=S)c(C)c1 (stereo not given)
→ 5 | 4
> CCOCCn1c(N2CCCCC2)nc2c1c(=O)n(C)c(=O)n2C
→ 2 | -4
> COC(=O)CC1Sc2nncn2N=C1c1cccs1 (stereo not given)
→ 0 | 5
> c1nc(SCc2ccc3c(c2)OCO3)c2c3c(sc2n1)CCC3
→ 9 | 7
> O=[N+]([O-])c1ccc(NCc2ccccn2)c([N+](=O)[O-])c1
→ 15 | 17
> Cc1ccc(C)c(C=C2SC(N3CCOCC3)=NC2=O)c1
→ 2 | -2
> COCCN(CC(=O)N(Cc1cccn1Cc1ccc(Br)cc1)C1CCCCC1)C(=O)c1ccc2c(c1)OCO2
→ 9 | 6
> N#Cc1ccccc1Cn1nnc(-c2ccccc2)n1
→ 3 | 7
> CCNC(=O)N1CCN(c2cc(Oc3cc(C)ccc3F)ncn2)CC1C (stereo not given)
→ -8 | -1
> O=C(c1cc2c(cc1O)CCCC2)N1CCC(CN2CCCCC2)C1 (stereo not given)
→ 3 | 3
> Cc1ccc(C=Nc2ccc(F)c(F)c2F)s1
→ -5 | -8
> O=C(c1nc2sccn2c1CNCC(c1cccnc1)N1CCOCC1)N1CCCC1 (stereo not given)
→ 9 | 11
> O=c1c2ccccc2nnn1CSc1nc2ccccc2c(=O)n1CC1CCCO1 (stereo not given)
→ -3 | -5

Single values from the list:
NPYLR7 agonist max-min with Cc1ccc(C=Nc2ccc(F)c(F)c2F)s1 = -8
NPYLR7 agonist with O=c1c2ccccc2nnn1CSc1nc2ccccc2c(=O)n1CC1CCCO1 (stereo not given) = -3
NPYLR7 agonist with Cc1ccc(C)c(C=C2SC(N3CCOCC3)=NC2=O)c1 = 2
NPYLR7 agonist max-min with O=C(c1cc2c(cc1O)CCCC2)N1CCC(CN2CCCCC2)C1 (stereo not given) = 3
NPYLR7 agonist max-min with Cc1ccc(S(=O)(=O)N(CCN2CCCC2)CC(=O)N(CCc2ccccc2)Cc2ccc(C)o2)cc1 = 2
NPYLR7 agonist max-min with Clc1ccc(COc2ccccc2CNc2ncn[nH]2)c(Cl)c1 = -15

Further records follow:
mol	NPYLR7 agonist	NPYLR7 agonist max-min
O=c1ccc2ccc(OS(=O)(=O)c3cccs3)cc2o1	-1	-3
COc1ccc(Cl)cc1NC(=O)CCSc1n[nH]c(=O)n1C1CC1	-5	-5
COc1ccc(NC(=O)Nc2nc(CCC(=O)NCCc3ccccc3)cs2)cc1	18	15
CC1=C(C#N)C(NC(=O)c2ccc(C(C)(C)C)cc2)(C(F)(F)F)C(=O)N1 (stereo not given)	4	2
COc1ccc(C)cc1C(C)NS(=O)(=O)C1=Cc2ccccc2CC1 (stereo not given)	6	2
Cc1cc(C(=O)CSc2nc3sc4c(c3c(=O)n2C)CCC4)c(C)n1C	1	-4
COc1ccc(CNC(=O)C(C)N2CCOCC2)cc1OC (stereo not given)	5	5
O=c1[nH]c(NCCO)nc2c1C1(CCCC1)Cc1ccccc1-2	-13	-18
O=C(c1cnccn1)N(Cc1ccccn1)CC1CCCO1 (stereo not given)	1	-10
CN1OCC(S(=O)(=O)NCc2cccnc2)C1c1cccc([N+](=O)[O-])c1 (stereo not given)	1	-1
O=C(NCc1cc(Cl)ccc1OC(F)F)NC1CCC(O)CC1 (stereo not given)	2	-1
CCOc1cccc2cc(C(=O)Nc3nnc(-c4cc(C)n(C)n4)o3)oc12	-9	-14
Cn1cccc1C(=O)OC1CCC(NC(=O)OCC(F)(F)F)CC1 (stereo not given)	2	1
O=C(Nc1ccc(-n2nc(OCc3ccc(F)cc3)nc2-c2ccccc2F)cc1)c1cccs1	-3	8
COc1ccc(NC(=O)CSCc2ccccn2)cc1OC(F)F	0	-3
Cc1cccc(CC(=O)N2CCC(n3nccc3NC(=O)c3ccc4c(c3)OCO4)CC2)c1	24	21
CCN(CC)c1ccc2cc(C(N)=O)c(=Nc3cccc(C(N)=O)c3)oc2c1	-4	-9
CC1(C)CC(=O)C(C2C3=C(CC(C)(C)CC3=O)OC3=C2C(=O)CC(C)(C)C3)C(=O)C1	0	19
O=C1CCCc2cc(S(=O)(=O)NCCC3CCCC3)ccc2N1	6	3
Cn1cc(C(=O)Nc2ccc(F)c(C(F)(F)F)c2)c2[nH]c(=O)n(-c3ccc(Cl)cc3)c(=O)c21	1	0
O=C(NCc1ccco1)c1ccccc1N1CCC(NC(=O)C2CCCC2)CC1	-1	8
CC(C)NC(=O)NC1CC(=O)N(C(C)(C)C)C1 (stereo not given)	3	2
CN(Cc1ccccc1NS(=O)(=O)c1ccc(S(=O)(=O)N(C)C)cc1)C1CCCCC1	2	7
N#CCN(CC#N)C(=O)COc1cc(Cl)cc(Cl)c1	-5	-7
O=C1CSC(c2ccc(Br)cc2)N1c1ccccn1 (stereo not given)	23	24
COc1ccc(S(=O)(=O)NC(=O)Cc2cccc(C)c2)cc1C	8	6
CCC(C)NC(=O)c1nn(-c2ccccc2)c(=O)n(CC)c1=O (stereo not given)	17	14
O=C(Nc1ccccc1Cc1ccccc1)C1=COCCO1	-7	-9
COc1ccccc1S(=O)(=O)Nc1ccc(C(F)(F)F)cc1	7	4
CSc1nc2c(-c3ccccc3)c[nH]c2c(=O)n1Cc1ccccc1	0	-5
Cc1nc(-c2cccc(C(F)(F)F)c2)nc(N2CCN(C(=O)c3ccccc3F)CC2)c1Cc1ccccc1	23	23
CC(=O)NCCNc1cc(-n2nc(C)cc2C)nc(C)n1	-1	-3
CN1CCC(CN(C)C(=O)c2csc(CCc3ccccc3)n2)C1 (stereo not given)	5	3
CC(NC(=O)C1CCCN1C(=O)C1CC1)c1ccc(Br)cc1 (stereo not given)	-7	-6
Cc1ccc(CN(C(=O)c2cnc3n[nH]c(C)c3c2)C2CC2)cc1	1	15
COc1ccc(-c2cc(C)cnc2-n2cnnc2)cn1	8	6
Cc1cccc(-n2cc(CN3CCN(C(=O)c4ccco4)CC3)c(-c3cccc(F)c3)n2)c1	12&0	9&-3
Cc1nc(NC(=O)C2CCCC2)sc1Cc1ccc2c(c1)OCO2	6	2
O=C(N1CCOC(COc2ccc3c(c2)CCCC3)C1)C1(c2ccccc2)CC1 (stereo not given)	2	-3
CCc1c(C)nc(-n2nc(C)cc2NC(=O)c2ccccc2)[nH]c1=O	-4	-3
FC(F)(F)c1nc(Nc2ccc3c(c2)OCCCO3)c2ccccc2n1	9	11
Cc1ccccc1-n1ncc(C(C)NC(=O)CCc2c[nH]c3ccccc23)c1C (stereo not given)	7&12	5&6
CCOC(=O)C1CCCN(C(=O)CCC2(Cc3cccs3)CCC(=O)N2)C1 (stereo not given)	8	2
Cc1ccc(Cc2nc(N3CCN(S(=O)(=O)c4ccc(C)cc4)CC3)c3c(-c4cccnc4)noc3n2)cc1	13	2
CN(Cc1cc(Br)cs1)C1CCN(c2ccc(C#N)cc2)C1=O (stereo not given)	4	2
COc1cc(Cl)ccc1CNS(=O)(=O)N(C)C	4	2
CCOC(=O)N1CCN(Cc2c(C(=O)N3CCCCCCC3)nc3sccn23)CC1	-8	-14
O=C1C2C3c4ccccc4C(c4ccccc43)C2C(=O)N1CCN1CCCCC1 (stereo not given)	10	9
CC(C)COc1nc(-c2ccc(F)cc2)n(-c2ccc(NC(=O)C3CCC3)cc2)n1	-1	8
CCn1c(CC2CCNCC2)nn(Cc2nccs2)c1=O	-2	-7

Overlap with the part before: 4 compounds, followed by the next part.
mol	NPYLR7 agonist	NPYLR7 agonist max-min
CCOC(=O)N1CCN(Cc2c(C(=O)N3CCCCCCC3)nc3sccn23)CC1	-8	-14
O=C1C2C3c4ccccc4C(c4ccccc43)C2C(=O)N1CCN1CCCCC1 (stereo not given)	10	9
CC(C)COc1nc(-c2ccc(F)cc2)n(-c2ccc(NC(=O)C3CCC3)cc2)n1	-1	8
CCn1c(CC2CCNCC2)nn(Cc2nccs2)c1=O	-2	-7
CCNC(=O)c1cccc(C)c1OCc1ccccc1	7	7
COC(=O)c1cc(NCc2c(F)cccc2Cl)ccc1N1CCOCC1	-6	0
COc1ccccc1CN1CCC(CN(CC(C)C)C(=O)c2cc(C)nc(C)n2)CC1	5	1
CC(C)CNC(=O)c1cc(NC(=O)c2ccc(C(F)(F)F)cc2)ccc1N1CCC(Cc2ccccc2)CC1	19	20
c1cc(OC2CCNCC2)ccn1	-8	-15
O=C(NCc1ccccc1F)N1CCCN(C2CC2)CC1	2	2
Cc1cc(C)n(C(=O)c2cc(-c3ccc(OC(C)C)cc3)nc3ccccc23)n1	-8	-12
Nc1cc(-c2cccc(C(F)(F)F)c2)nn1-c1ccc(C(=O)NCCc2ccc(F)cc2)cc1	-5	-8
O=C(c1cccs1)N1N=C2CCCCC2C1(O)C(F)(F)F (stereo not given)	-1	1
CCN(C)S(=O)(=O)NCC1CCN(Cc2ccccc2F)C1 (stereo not given)	-4	-5
CN1CCC2(CC1)Oc1ccccc1C1CC(c3ccccc3)=NN12 (stereo not given)	-6	-13
CC(C)(CO)Nc1nc(Cl)nc(NC2CCCCC2)n1	2	-1
Cc1ccc(N2CC(c3nc4ccccc4n3CC(=O)OC(C)C)CC2=O)cc1 (stereo not given)	10	15
COc1nn(C)cc1C(=O)Nc1nc2cc3c(cc2s1)OCCO3	4	2
CCCNC(=O)N1CCN(c2cc(Cl)nc(SCC(=O)NCCCOC)n2)CC1C (stereo not given)	21	15
CCOc1cc(Nc2ccc(NC(=O)Nc3ccccc3)cc2)nc(C)n1	5	4
COc1ccc(NC2CCCN(C(=O)c3cc(=O)c4ccccc4[nH]3)C2)cc1 (stereo not given)	-1	-3

Source: PubChem BioAssay
